Screens (PubChem)
VDR inhibitor – inhibitors of human vitamin D receptor. P11473. VDR-SRC2-3 peptide fluorescence polarization, 2 h. Potency, µM, without a hit: max response, negative = inhibition, usual class: inhibitors. hit rate 0.93% among 400,000; active = well fitted inhibition curve with a large enough effect; inconclusive = small, poorly fitted or top-dose-only effect, or another doubt; inactive = no such curve, though single readings can be large or run the other way; note: series mostly up to about 120 µM
Target sequence (P11473 whole entry, looked up): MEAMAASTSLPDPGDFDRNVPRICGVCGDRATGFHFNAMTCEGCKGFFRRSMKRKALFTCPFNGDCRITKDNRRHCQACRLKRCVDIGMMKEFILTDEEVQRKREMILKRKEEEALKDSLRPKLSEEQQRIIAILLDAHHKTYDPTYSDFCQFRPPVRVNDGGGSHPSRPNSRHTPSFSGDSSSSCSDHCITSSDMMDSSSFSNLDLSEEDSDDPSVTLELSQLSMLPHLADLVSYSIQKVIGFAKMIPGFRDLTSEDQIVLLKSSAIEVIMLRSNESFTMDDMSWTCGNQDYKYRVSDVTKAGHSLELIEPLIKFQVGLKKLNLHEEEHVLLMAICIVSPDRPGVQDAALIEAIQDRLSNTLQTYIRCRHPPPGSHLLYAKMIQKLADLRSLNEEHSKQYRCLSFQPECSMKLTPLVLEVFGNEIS
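Measured by FP: displacement of SRC2-3 coactivator peptide from VDR by library compounds, following a two-hour ambient incubation.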
* marks the source's active call; other numbers are inactive results; ? = inconclusive; & = joins results of further samples. % is set by controls: 0 for no effect and ±100 for the full control effect; potency is the fitted concentration of half-maximal effect. Not all compounds are listed. The share of hits here may be higher or lower than overall.

O=C1CC(NCc2ccc3c(c2)OCO3)C(=O)N1Cc1ccc2c(c1)OCO2 (configuration not stated)
  VDR inhibitor: -5%
COc1ccccc1NC(=O)c1ccc(COc2ccc3c(c2)CCC3)cc1
  VDR inhibitor: -5%
O=C(c1ccc(Cl)c(S(=O)(=O)N2CCCCCC2)c1)N1CCN(c2ccc(O)cc2)CC1
  VDR inhibitor: -3%
COC(=O)c1sc(N)c(C(=O)OC)c1COC(=O)C12CC3CC(CC(O)(C3)C1)C2
  VDR inhibitor: -5%
CC1CCc2sc(C(=O)NC(C)C3CCCO3)cc2C1 (configuration not stated)
  VDR inhibitor: 14%
COc1ccccc1/C=C/C(=C1/C(=O)N(c2ccccc2)N=C1C)c1ccc(C)cc1
  VDR inhibitor: ?
Cc1cc(=O)oc2cc(NC(=O)C(C)Oc3ccccc3)ccc12 (configuration not stated)
  VDR inhibitor: -15%
CC(C)[C@H](NC(=O)c1ccccc1)C(=O)OCc1nnc(-c2ccccc2)o1
  VDR inhibitor: -1%
COc1ccc(C)cc1N(CC(=O)N1CCCCCC1)S(=O)(=O)c1ccccc1
  VDR inhibitor: 1%
Cc1ccc(C(C(=O)NC2CCCC2)N(CCCO)C(=O)Cn2nnc(-c3ccc(C)o3)n2)cc1 (configuration not stated)
  VDR inhibitor: -8%
CCOC(=O)c1ccc(NC(=S)NCc2ccccc2)cc1
  VDR inhibitor: 4%
Cc1coc2c(C)c3oc(=O)c(CCC(=O)NCCCN4CCOCC4)c(C)c3cc12
  VDR inhibitor: 0%
COc1ccc(-c2noc3c2-c2nc(-c4ccccc4C)sc2CC3)cc1
  VDR inhibitor: 1%
O=C(CSc1ccccn1)C12CC3CC(CC(C3)C1)C2
  VDR inhibitor: 13%
CC(C)Cc1nc(SCC(=O)N2CCCCC2)c2c(=O)n(C)c(=O)n(C)c2n1
  VDR inhibitor: -4%

Cc1nn(-c2ccccc2)c2sc(C(=O)NNC(=O)COc3cccc4ccccc34)cc12
  VDR inhibitor: 10%
COc1ccc(CN(C)C(=O)CCN2C(=O)c3ccccc3C2=O)c(OC)c1OC
  VDR inhibitor: -6%
O=C(Nc1ccccc1-c1nc2ccccc2s1)c1ccc(F)cc1
  VDR inhibitor: -13%
C/C(=N\NC(=S)NC1CCCCC1)c1cccc(C(F)(F)F)c1
  VDR inhibitor: -21%
O=S(=O)(N/N=C\c1ccc2c(c1)OCO2)c1ccc(Cl)cc1
  VDR inhibitor: 11%
CN(C)/C=C(\C#N)C(=O)N/N=C(\CC(=O)C(F)(F)F)c1ccco1
  VDR inhibitor: -14%
Cc1ccc(S(=O)(=O)c2c(C)nn(-c3ccccc3)c2OC(=O)c2ccco2)cc1
  VDR inhibitor: -5%
Cc1ccc(NS(=O)(=O)c2cc(NC(=O)c3ccc4c(c3)NC(=O)CS4)ccc2Cl)c(C)c1
  VDR inhibitor: -23%
Cc1ccc(OCC(=O)N/N=C/c2ccco2)cc1
  VDR inhibitor: -4%
COC(=O)c1cc(S(=O)(=O)N(C)c2ccc(C)c(C)c2)c[nH]1
  VDR inhibitor: 13%
COc1cccc2cc(-c3nc4ccccc4o3)c(=O)oc12
  VDR inhibitor: 11%
O=C(COc1ccc2c(c1)oc(=O)c1ccccc12)NCCCN1CCOCC1
  VDR inhibitor: -95%
COc1ccc(CN(C(=O)CSc2nnc(-c3c[nH]c4ccccc34)o2)c2ccc(F)cc2)cc1OC
  VDR inhibitor: -2%
CC1CN(C(=O)COC(=O)c2cc(Cl)ccc2Cl)CC(C)O1 (configuration not stated)
  VDR inhibitor: -6%
COc1ccc2cc(C(=O)NCCCN3CCCC3=O)[nH]c2c1
  VDR inhibitor: -14%

Structures listed so far that have nitrogen in an aromatic ring (12):
CC(C)[C@H](NC(=O)c1ccccc1)C(=O)OCc1nnc(-c2ccccc2)o1
  VDR inhibitor: -1%
Cc1ccc(C(C(=O)NC2CCCC2)N(CCCO)C(=O)Cn2nnc(-c3ccc(C)o3)n2)cc1 (configuration not stated)
  VDR inhibitor: -8%
COc1ccc(-c2noc3c2-c2nc(-c4ccccc4C)sc2CC3)cc1
  VDR inhibitor: 1%
O=C(CSc1ccccn1)C12CC3CC(CC(C3)C1)C2
  VDR inhibitor: 13%
CC(C)Cc1nc(SCC(=O)N2CCCCC2)c2c(=O)n(C)c(=O)n(C)c2n1
  VDR inhibitor: -4%
Cc1nn(-c2ccccc2)c2sc(C(=O)NNC(=O)COc3cccc4ccccc34)cc12
  VDR inhibitor: 10%
O=C(Nc1ccccc1-c1nc2ccccc2s1)c1ccc(F)cc1
  VDR inhibitor: -13%
Cc1ccc(S(=O)(=O)c2c(C)nn(-c3ccccc3)c2OC(=O)c2ccco2)cc1
  VDR inhibitor: -5%
COC(=O)c1cc(S(=O)(=O)N(C)c2ccc(C)c(C)c2)c[nH]1
  VDR inhibitor: 13%
COc1cccc2cc(-c3nc4ccccc4o3)c(=O)oc12
  VDR inhibitor: 11%
COc1ccc(CN(C(=O)CSc2nnc(-c3c[nH]c4ccccc34)o2)c2ccc(F)cc2)cc1OC
  VDR inhibitor: -2%
COc1ccc2cc(C(=O)NCCCN3CCCC3=O)[nH]c2c1
  VDR inhibitor: -14%

Further records.
COc1ccc(-c2cc(=O)c3ccccc3o2)cc1
  VDR inhibitor: -16%&-9%
CCN(CC(=O)Nc1ccc(NC(C)=O)cc1)Cc1c(O)ccc2cc(Br)ccc12
  VDR inhibitor: ?
COc1cccc(CNC(=O)N2CCN(c3ccccc3C)CC2)c1
  VDR inhibitor: -5%
CCn1c(SCC(=O)Nc2cc(C)on2)nc2c([nH]c3ccccc32)c1=O
  VDR inhibitor: -11%
O=c1[nH]n(Cc2ccccc2)c2ccccc12
  VDR inhibitor: 16%
Cc1ccc(-n2nc(C(=O)N3CCN(c4cc(C)ccc4C)CC3)c3c4ccccc4n(C)c3c2=O)cc1
  VDR inhibitor: -2%
CC(=O)N1CCC2(CCCN(Cc3nccs3)C2)CC1
  VDR inhibitor: 0%
COc1ccc(C2C(C#N)=C(SCC(=O)Nc3ccc(C)cc3)NC3=C2C(=O)CC(C)(C)C3)cc1 (configuration not stated)
  VDR inhibitor: -23%
COc1ccc(NC(=O)C2CCCN(S(=O)(=O)c3ccc(Br)s3)C2)cc1 (configuration not stated)
  VDR inhibitor: -8%
CCOc1ccc(C2C(=O)N(C3CCCCC3)CC(=O)N2Cc2ccccc2OC)cc1OC (configuration not stated)
  VDR inhibitor: 14%
NS(=O)(=O)c1ccc(CCNC(=O)CNS(=O)(=O)c2cccc(Br)c2)cc1
  VDR inhibitor: -29%
Cc1cccc(NC(=O)c2oc3ccccc3c2NC(=O)Cc2coc3c(C)c(C)ccc23)c1
  VDR inhibitor: 10%
CC(C(=O)O)c1n[nH]c(=O)c2ccccc12 (configuration not stated)
  VDR inhibitor: -2%
COc1cc(/C=C/c2nc3cc(Cl)ccc3c(=O)n2-c2ccc(C)cc2C)cc(OC)c1OC
  VDR inhibitor: 12%
CCOC(=O)c1cccc(NC(=O)CCS(=O)(=O)c2ccc(Br)s2)c1
  VDR inhibitor: -3%&10%

CCOC(=O)c1c(N=CN(C)C)c(C#N)c2n1CCCC2
  VDR inhibitor: 27%
O=C(c1ccccc1)[C@@H]1[C@@H](C(=O)c2ccc(F)cc2)[C@@]2(C(=O)Nc3ccccc32)[C@H]2c3ccccc3C=CN12
  VDR inhibitor: ?
O=C(CN1CCN(CN2C(=O)NC3(CCCCCC3)C2=O)CC1)Nc1ccc(F)cc1
  VDR inhibitor: 11%
CCOC(=O)c1noc2ncnc(N3CCN(c4cccc(C(F)(F)F)c4)CC3)c12
  VDR inhibitor: 7%
CC(C)c1ccc(NC(=O)COC(=O)C2=COCCO2)cc1
  VDR inhibitor: -4%
COc1cccc(NC(=O)c2ccccc2N2C(=O)C3C4C=CC(C5CC45)C3C2=O)c1 (configuration not stated)
  VDR inhibitor: -5%
CCc1ccc(NC(=S)N(CCN2CCCCC2)Cc2ccco2)cc1
  VDR inhibitor: -18%
COC(=O)c1oc(-c2ccccc2)nc1C
  VDR inhibitor: -8%
O=C(O)/C=C/C(=O)N1CCN(c2cccc(Cl)c2)CC1
  VDR inhibitor: 6%
Cc1cc(C)c(S(=O)(=O)N2CCCC2)c(C)c1
  VDR inhibitor: 10%
COc1ccc2c(c1)C(NC(C)=O)C(=O)N2C (configuration not stated)
  VDR inhibitor: 5%
COc1cc(/C=C/CNC[C@H]2O[C@@H](n3cnc(C(N)=O)n3)[C@H](O)[C@@H]2O)ccc1O
  VDR inhibitor: -15%
O=C(Nc1ccccc1)Nc1nc(-c2ccc(F)c(F)c2)cs1
  VDR inhibitor: -2%
COc1ccc(NC(=O)c2ccc(Cl)nc2)cc1S(=O)(=O)N1CCCCC1
  VDR inhibitor: -7%
COc1ccc(CN(C(=S)Nc2ccccc2)C2CC(=O)N(c3ccc(F)cc3)C2=O)cc1 (configuration not stated)
  VDR inhibitor: 5%

O=C(c1ccc([N+](=O)[O-])cc1)N(Cc1ccc(Cl)cc1)N1C(=O)CCCC1=O
  VDR inhibitor: -13%
O=C(O)/C=C/C(=O)Nc1ccc2nccnc2c1
  VDR inhibitor: -14%
Cc1nn(CCCC(=O)NC(C)c2ccccc2)c(=O)c2nn(-c3ccccc3)c(C)c12 (configuration not stated)
  VDR inhibitor: -16%
COc1cc(NC(=O)CSc2nccc(=O)[nH]2)c(C)cc1[N+](=O)[O-]
  VDR inhibitor: -3%
COC(CNC(=O)c1ccc2c(=O)n(Cc3ccc(Cl)cc3)c(=S)[nH]c2c1)OC
  VDR inhibitor: 7%
COc1cc(C2C(C#N)=C(N)N(c3cccnc3)C3=C2C(=O)CCC3)ccc1O (configuration not stated)
  VDR inhibitor: 4%
CN1C[C@@H]2[C@@H]3C(=O)N(Cc4ccccc4)C(=O)[C@@H]3[C@](Cc3ccccc3)(C1=O)N2C(=O)c1ccccc1
  VDR inhibitor: 10%
COc1ccc2c(c1)C1=C(CC2)C(c2ccc(C)cc2)NC(=S)N1 (configuration not stated)
  VDR inhibitor: 1%
Cc1ccc(NC(=O)CN(C)C(=O)COC(=O)c2nccnc2N)cc1
  VDR inhibitor: -13%
CC1CCN(S(=O)(=O)c2ccc(C(=O)Nc3nnc(-c4ccccn4)o3)cc2)CC1
  VDR inhibitor: 3%
COC(=O)[C@H](CO)NS(=O)(=O)c1ccc(C)cc1
  VDR inhibitor: -16%
Cc1ccc2nc(NC(=O)c3ccc(S(=O)(=O)N4CCC(C)CC4)cc3)sc2c1
  VDR inhibitor: 10%
Cc1ccc(-n2ncc(C(=O)Nc3cc(Cl)cc(Cl)c3)c2C2CCNCC2)cc1C
  VDR inhibitor: -5%
Cc1ccc(S(=O)(=O)N2CCCC2C(=O)Nc2ccc(O)cc2)cc1 (configuration not stated)
  VDR inhibitor: -14%
COc1cccc(C(=O)Nc2cc(Cl)c(O)c(Cl)c2)c1
  VDR inhibitor: -3%

COc1ccc(NC(=O)n2nc(OC(=O)c3cccs3)cc2N)cc1
  VDR inhibitor: -5%
O=C(Cn1nnc(-c2ccccc2)n1)N/N=C/c1cc([N+](=O)[O-])ccc1O
  VDR inhibitor: -3%
CC(Sc1nnnn1-c1ccc(O)cc1)c1nc2ccccc2c(=O)[nH]1 (configuration not stated)
  VDR inhibitor: -6%
COc1cccc(C(=O)Nc2cccc(C(=O)N3CCOCC3)c2)c1
  VDR inhibitor: 2%
Cc1cc(C)cc(N2CC(C)Cn3c2nc2c3c(=O)[nH]c(=O)n2C)c1 (configuration not stated)
  VDR inhibitor: 2%
Cc1csc(NC(=O)C(Cc2ccccc2)n2cccc2)n1 (configuration not stated)
  VDR inhibitor: -17%
Cc1cc(C(=O)N2CCCC(N3CCN(c4cccc(Cl)c4)CC3)C2)n(C)n1 (configuration not stated)
  VDR inhibitor: 12%
Cc1cccc(N=N/C(=C\O)C(=O)c2ccc(Br)cc2)c1
  VDR inhibitor: -8%
Cc1c(Cl)cccc1NC(=O)CC(c1cccs1)N1Cc2ccccc2C1=O (configuration not stated)
  VDR inhibitor: 3%
CCn1cc(C2C3=C(CC(C)(C)CC3=O)N(c3ccccc3)C3=C2C(=O)CC(C)(C)C3)c(C)n1
  VDR inhibitor: -15%
CCOC(=O)CSc1ccc2nnc(-c3cccnc3)n2n1
  VDR inhibitor: -3%
COC(=O)c1nc2n(n1)C(c1cc(OC)ccc1OC)C=C(c1ccc(Br)cc1)N2 (configuration not stated)
  VDR inhibitor: 18%
COc1ccc(-c2nnn(CC(=O)N(CCO)C(C(=O)NC3CCCC3)c3ccncc3)n2)cc1 (configuration not stated)
  VDR inhibitor: 11%
CCn1c(C(=O)NCc2ccccn2)cc2sccc21
  VDR inhibitor: -7%
O=C(Nc1ccccc1)Oc1cccc(Br)c1
  VDR inhibitor: -12%

CSCCC(NS(=O)(=O)c1cccc(C(F)(F)F)c1)C(=O)Nc1ccccc1N1CCCC1 (configuration not stated)
  VDR inhibitor: -3%
COc1ccc(NC(=O)/C(C#N)=C/c2c(C)nn(-c3ccc(F)cc3)c2Cl)cc1OC
  VDR inhibitor: -28%
Cc1cc(NC(=O)C2CCCC2)nc2c1c(=O)oc1ccccc12
  VDR inhibitor: -4%
CC(C)(C)c1ccc(-c2noc(CCC(N)=O)n2)cc1
  VDR inhibitor: -21%
O=C(CSc1nc2ccccc2[nH]1)Nc1ccc2[nH]c(=O)[nH]c2c1
  VDR inhibitor: -26%
CCOC(=O)Cn1c(=O)oc2cc(S(=O)(=O)N3CCN(c4ccc(C(C)=O)cc4)CC3)ccc21
  VDR inhibitor: 6%
